Bead autofluor: flagged as autofluorescent in microsphere protease counterscreen; 360,000 compounds, 3.1% hits; compound autofluorescence counterscreen, microsphere flow cytometry; active compounds read high; AID 624483; fluorescence intensity (concentration not given with the values);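 active means at least 3 SD above the mean of all compounds, about 16000 in these data; inconclusive means too few beads counted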;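 further: 100 nL of 1 mM stock went into each well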
ugtP null kill: kills S. aureus RN4220 lacking UgtP; 330,000 compounds, 0.54% hits; growth inhibition, % (test concentration not listed); S. aureus RN4220 ugtP deletion, OD600 growth, 16 h; some inactives read as strong as hits;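 active means z-score under -3 and OD600 up to 0.15 on both plates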;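 further: plate controls were untreated wells for no effect and antibiotic for full effect; wells of about 80 µL received 100 nL stock; the first replicate is given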
Sa RN4220 lethal: kills Staphylococcus aureus RN4220 | S. aureus RN4220 growth, OD600, 16 h | inhibition, % (test concentration not listed) | 330,000 compounds, 0.33% hits;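 active means z-score of -3 or lower and OD600 up to 0.18 on both plates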;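 further: plate controls were untreated cells for no effect and reference antibiotic for full effect; stock transfer was 100 nL into about 80 µL; one replicate is shown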
Mtb hypoxia rep: Mtb hypoxia fluorescent reporter inhibition | M. tuberculosis hypoxia-regulated fluorescent reporter, fluorescence | fluorescence inhibition, % (no concentration beside the values) | 300,000 compounds, 0.1% hits | AID 1159583;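 active means 35 to 45% if threefold the growth effect, above 45% if 1.5-fold the growth effect; inactive means the rest, general growth blockers included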;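 further: wells of about 50 µL received 100 nL stock; 0% = vehicle wells and 100% = reference inhibitor wells; whole bacteria with a GFP reporter of the hypoxia response; strong numbers were not always called active; many hits fall short of the cut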
BJeLR viability: kills HRASV12-expressing BJeLR cells; 300,000 compounds, 0.17% hits; inhibition, % (no concentration beside the values); BJeLR (HRASV12) viability, CellTiter-Glo ATP luminescence, 48 h; reference of the scale not given here;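 active means replicate mean above 50%; inconclusive means above 50% but judged a plate artefact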;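 further: 50 nL library stock added to about 25 µL; numbers are from one replicate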
PrP 5UTR inh: inhibition of PrP 5' UTR reporter expression; inhibition, % (no concentration beside the values); cell-based PrP 5' UTR mRNA reporter, plate reader; 340,000 compounds, 0.35% hits;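 active means every replicate at 50% or more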;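 further: 0 = median of the neutral control wells; tested in H4 reporter cells; numbers are from one replicate; inactives centre near -14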
Mtb hypoxia rep growth: recorded beside Mtb hypoxia rep, whose call it bears; growth inhibition, %; measured here: M. tuberculosis growth (absorbance);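 0% = vehicle and 100% = reference antibiotic; read after six days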
Active calls of the source: *; ? = inconclusive; . = no result given.

SMILES	Bead autofluor	ugtP null kill	Sa RN4220 lethal	Mtb hypoxia rep	Mtb hypoxia rep growth	BJeLR viability	PrP 5UTR inh
CCCNS(=O)(=O)c1ccc(CCC(=O)N2CCN(CC)CC2)cc1	6776	9	5.6	1	-1	0	-15
Cc1cc(N2C(=O)C3CCCN3C2c2ccc(Cl)c(Cl)c2)no1 (configuration not stated)	9614	-1	3.7	2	3	-5	-35
CCS(=O)(=O)N1CCC(NC(=O)C(Cc2ccc(OC)c(OC)c2)NC(C)=O)CC1 (configuration not stated)	4582	4	1.1	7	-8	-3	-12
COc1ccccc1N1CCN(c2nc(-c3ccccc3)cc(C(F)(F)F)n2)CC1	3579	29	-1.6	3	7	-2	11
CCCCC(=O)NC(=S)NNC(=O)CCc1ccccc1	3911	19	-7.1	13	16	-9	6
O=C(Nc1ccc(-c2nc3cccnc3s2)cc1)C1CCCO1 (configuration not stated)	6105	-9	16	-4	6	23	62*
COc1ccc(CCNS(=O)(=O)c2ccc(C(=O)NCc3ccco3)cc2)cc1OC	10230	11	4.2	3	1	-10	-16
CC1=C(C(=O)OC(C)C)C(c2cncc(-c3ccc(F)cc3)c2)C(C#N)=C(N)O1 (configuration not stated)	2431	0	-0.6	14	1	2	-4
Cc1[nH]c(-c2ccccn2)nc(=S)c1Cl	3209	.	.	.	.	-1	-16
CC(NC(=O)c1ccccc1Cl)c1nnc(SCC(=O)Nc2ccc(C(=O)O)cc2)n1C (configuration not stated)	4287	1	-0.8	5	-2	0	-6
CC(C)(c1ccccc1)c1ccc(OCCN2CCOCC2)cc1	3937	3	3.7	14	6	-5	-5
Cc1cc(C)cc(OCC(=O)Nc2ccc(CN3CCCCC3)cc2)c1	3310	2	-1.2	-10	-7	-5	-14
NC(=O)c1nsc(C(=O)N(CC(=O)NCc2ccccc2)c2cccc(F)c2)c1N	4419	9	4.0	-2	-5	-10	-3
COc1ccc(/C=N/NC(=O)c2cccc(C(F)(F)F)c2)cc1	3794	.	.	.	.	0	-28
C=CCn1c(SCC(=O)N2c3ccccc3Sc3ccccc32)nnc1-c1ccco1	3860	3	0.7	13	8	4	-1
COc1ccc(NC(=O)C2CCCN(S(C)(=O)=O)C2)cc1 (configuration not stated)	3585	-1	1.7	4	8	-7	-17
Cn1cc(S(=O)(=O)N2CCCC2)cc1C(=O)N1CCN(c2ccccc2)CC1	5836	0	-0.2	-10	-4	9	-48
Cc1ccc(OCCC(=O)N(Cc2ccccc2)c2c(N)n(Cc3ccccc3)c(=O)[nH]c2=O)cc1	5105	.	.	.	.	9	6
COc1cc(CN2CCCC(CO)(Cc3ccccc3C)C2)cc2c1OCO2 (configuration not stated)	5049	10	-2.5	6	11	13	-22
N#Cc1cccc(CN2C=NS(=O)(=O)c3ccccc32)c1	3824	10	-0.6	2	-3	-4	-8
COc1cc(C=NNC(=O)c2ccc(CSc3nncn3C)cc2)ccc1OCC(=O)N1CC(C)OC(C)C1 (configuration not stated)	.	17	3.8	4	5	.	.
Cc1noc(C)c1CSCC(=O)Nc1ccc(S(C)(=O)=O)cc1	.	4	1.3	1	-6	.	.
Cc1nc(N(C)C)c2sc(=S)n(C)c2n1	5899	5	4.0	.	.	-5	-22
CCOc1ccc(S(=O)(=O)N2CCOCC2)cc1NC(=O)C1CCC1	5327	4	1.9	1	1	-10	-8
c1ccc2c(-c3nc(C4CCCCC4)no3)cc(-c3ccncc3)nc2c1	15684	-12	7.1	7	9	-15	-15
CCOC(=O)C1=C(C)NC(=O)NC1C(C)C (configuration not stated)	3701	8	6.1	10	4	-5	-12
CS(=O)(=O)c1ccc2nc(NC(=O)Oc3ccccc3)sc2c1	4029	1	7.0	7	5	-5	-9
O=C1Nc2ccccc2N(O)N1c1ccc(Cl)cc1	2426	3	1.1	2	15	-4	-16
NCCCCC1NC(=O)c2cc([N+](=O)[O-])cc(F)c2NCCCCC(C(N)=O)NC(=O)CNC1=O (configuration not stated)	.	1	6.7	1	2	.	.
COc1ccc2c(c1)CC/C2=N\OC(=O)c1ccccc1C	3074	.	.	.	.	0	-89
COc1cccc(NC(=O)Cn2c3ccc(F)cc3c3nc4n(c(=O)c32)CCS4)c1	5046	-1	-2.2	3	9	5	-19
N#CC(C#N)=C1C=CC=CN1/C(=C\c1ccco1)C(=O)c1ccccc1	2447	74	37	19	18	.	-19
COc1ccc(C(=O)Oc2cc(C)[nH]c(=O)c2[N+](=O)[O-])cc1	5655	6	3.4	5	8	1	-42
COc1ccc(-c2nc(CS(=O)(=O)CC(=O)NCCc3cc(OC)ccc3OC)c(C)o2)cc1	17109*	6	2.5	-4	3	-5	-20
O=C(COC(=O)CNC(=O)c1ccc(Cl)cc1Cl)NCc1ccco1	5048	2	-0.3	9	6	-5	-2
Cc1cc(C)nc(SCc2ccc(C(=O)NNC(=O)Nc3cccc(Cl)c3)cc2)n1	2251	-1	3.4	9	5	-10	-3
CC(=O)Nc1ccccc1C(=O)OCC(=O)c1ccc2c(c1)OCCO2	2496	-1	6.9	4	6	10	-30
COC(=O)N=Nc1c(O)[nH]c2ccc(Br)cc12	4181	9	4.9	10	13	-7	-14
COC(=O)c1ccccc1NC(=O)CC(C)=NNC(=O)CC#N	.	1	3.7	-11	-7	.	.
CC1CN(C(=S)NC(=O)c2ccc(Cl)cc2)CC(C)O1 (configuration not stated)	6082	0	-1.2	5	-3	-5	2
CC(C)C[C@@]12C(=O)N(c3cccc(Br)c3)C(=O)N1C(c1ccc(Cl)cc1)C1C(=O)N(C3CCCCC3)C(=O)C12 (some centres not stated)	.	-25	-2.9	-7	5	.	.
O=C(NCc1cccnc1)C(=O)Nc1ccc2c(c1)OCO2	3865	2	1.0	-8	8	-6	-19
NC(=NCCc1ccc(Cl)cc1)NS(=O)(=O)c1ccc(F)cc1	2616	-10	5.2	10	-2	-4	-23
COc1ccc(C(=O)N=C2CCC(C#N)=C3c4cc(OC)c(OC)cc4CCN23)cc1	2593	14	9.9	1	3	11	-4
O=[N+]([O-])/C=C1/NCCN1Cc1ccc(Cl)nc1	2098	9	1.1	6	12	-5	-19
CCN(CC)C(=O)c1[nH]cnc1C(=O)NC(Cc1ccccc1)C(=O)OCc1ccccc1 (configuration not stated)	.	4	7.7	12	0	.	.
O=C1CS/C(=N\C(=O)N2c3ccccc3Sc3ccccc32)N1	24179*	2	1.4	7	12	0	-25
COCCn1c(SCC(=O)Nc2ccccc2)nc2c(oc3ccccc32)c1=O	2553	0	7.2	5	-3	.	-22
CCN(CC(=O)Nc1c(F)cccc1F)C(=O)CNC(=O)c1ccco1	5289	3	1.5	1	8	16	-20
Cc1ccc(C(=O)NNC(=O)c2ccc(NC(=O)C(C)(C)C)cc2)cc1	3269	0	0.8	-1	2	1	-15
NCCSc1c(-c2ccccc2)[nH]c2ccccc12	4722	-27	-6.5	0	8	11	-12
CC(=O)c1cccc(NC(=O)CSc2nc(=O)n(CCN3CCOCC3)c3c2CCCC3)c1	5992	1	1.5	0	10	-3	-5
Cc1onc(-c2ccccc2Cl)c1C(=O)Nc1cccc(-c2nc3ncccn3c2C)c1	8034	-4	8.8	1	2	-5	7
COc1ccc2nc(C)cc(NCc3ccc(F)cc3)c2c1	84261*	.	.	.	.	6	-22
CCc1ccc(N2C(=O)CC(NNc3nc4ccccc4s3)C2=O)cc1 (configuration not stated)	10577	.	.	.	.	-5	-8
NNC(=O)c1ccccc1OCc1ccccc1	3915	1	5.4	9	-5	-4	-10
Cc1cc(C)nc(SCCC(=O)Nc2ccccc2)n1	5903	4	3.2	0	-5	-6	-11
COc1ccc2oc(C(=O)NNC(=O)c3ccc(F)cc3)c(C)c2c1	?	-1	6.3	2	7	3	-27
O=C1CCCN1C(=O)CCC(=O)N1CCCC1=O	4843	-5	0.4	.	.	-1	-15
COc1ccc(CNc2nc3ccc(C)cc3s2)c(OC)c1OC	4285	9	2.4	3	6	-4	-12
Later entries:
SMILES	Bead autofluor	ugtP null kill	Sa RN4220 lethal	Mtb hypoxia rep	Mtb hypoxia rep growth	BJeLR viability	PrP 5UTR inh
CCOC(=O)c1c(C)[nH]c(C)c1C(=O)COC(=O)C1CCCN1S(=O)(=O)c1ccccc1F (configuration not stated)	3378	-1	6.0	.	.	1	-2
CC/C(=N\NC(=S)Nc1ccccc1)c1c(O)[nH]c(=O)[nH]c1=O	4301	4	3.8	14	5	-2	-28
COc1cc(C(=O)NCC(=O)Nc2c(C)cccc2C)ccc1OCC(=O)N1CCOCC1	3271	1	-0.9	4	4	.	-16
CCc1c(C)nc2[nH]nc(-c3ccccc3C)n2c1=O	2191	-12	-1.4	.	.	-9	-1
CCC12CC3CC(C1)CC(C(=O)O)(C3)C2	10794	-3	4.4	-1	4	-2	-5
Cc1cc(C(=O)NN=Cc2cccn2C)no1	.	7	0.3	6	2	.	.
COCc1ccccc1C1=CC(=O)CC(c2ccc(F)cc2)C1 (configuration not stated)	.	5	2.1	4	0	.	.
CCOC(=O)N1CCN(Cc2nc3cc(NC(=O)CC)ccc3n2C)CC1	2759	11	4.7	6	-6	6	-18
CC(=O)Nc1cccc(Oc2cc(C#N)c(C#N)cc2N2CCOCC2)c1	4950	-6	0.8	.	.	-8	3
Cn1c(SCc2ccccc2F)nnc1-c1cnccn1	8266	9	6.1	12	5	1	-65
CCOc1cccc(C(=O)NC(=S)NCc2cccnc2)c1	2136	-4	4.8	4	14	3	-20
CC(C)[C@H](NC(=O)[C@@H]1CSC2c3ccccc3C(=O)N21)C(=O)NC1CCCCC1 (some centres not stated)	5561	5	2.6	8	3	6	-47
O=C(CCC(=O)c1cccs1)NCc1cccnc1	3882	7	7.2	-1	6	-4	-20
CN(CC(=O)NCc1ccc(F)cc1)S(=O)(=O)c1ccc2c(c1)n(C)c(=O)c(=O)n2C	5275	3	3.9	12	7	8	-15
CCOC(=O)C1=C(COC(=O)Cc2ccc(Cl)cc2)NC(=O)NC1C (configuration not stated)	3823	10	26	10	8	.	-17
Cc1ccc(Nc2nnc(SCC(=O)Nc3ncc(C(F)(F)F)cc3Cl)s2)cc1	2390	-4	2.8	0	1	3	-13
O=C(COC(=O)c1cccc(Oc2ccccc2)c1)NCc1ccco1	.	3	-13	.	.	-8	-1
COc1ccc(C=NNC(=O)c2ccc3c(c2)OCO3)cc1	.	8	2.7	-1	5	.	.

Gathered by group: those above with an aryl thioether with sulfur outside any ring
SMILES	Bead autofluor	ugtP null kill	Sa RN4220 lethal	Mtb hypoxia rep	Mtb hypoxia rep growth	BJeLR viability	PrP 5UTR inh
CC(NC(=O)c1ccccc1Cl)c1nnc(SCC(=O)Nc2ccc(C(=O)O)cc2)n1C (configuration not stated)	4287	1	-0.8	5	-2	0	-6
C=CCn1c(SCC(=O)N2c3ccccc3Sc3ccccc32)nnc1-c1ccco1	3860	3	0.7	13	8	4	-1
COc1cc(C=NNC(=O)c2ccc(CSc3nncn3C)cc2)ccc1OCC(=O)N1CC(C)OC(C)C1 (configuration not stated)	.	17	3.8	4	5	.	.
Cc1cc(C)nc(SCc2ccc(C(=O)NNC(=O)Nc3cccc(Cl)c3)cc2)n1	2251	-1	3.4	9	5	-10	-3
COCCn1c(SCC(=O)Nc2ccccc2)nc2c(oc3ccccc32)c1=O	2553	0	7.2	5	-3	.	-22
NCCSc1c(-c2ccccc2)[nH]c2ccccc12	4722	-27	-6.5	0	8	11	-12
CC(=O)c1cccc(NC(=O)CSc2nc(=O)n(CCN3CCOCC3)c3c2CCCC3)c1	5992	1	1.5	0	10	-3	-5
Cc1cc(C)nc(SCCC(=O)Nc2ccccc2)n1	5903	4	3.2	0	-5	-6	-11
Cn1c(SCc2ccccc2F)nnc1-c1cnccn1	8266	9	6.1	12	5	1	-65
Cc1ccc(Nc2nnc(SCC(=O)Nc3ncc(C(F)(F)F)cc3Cl)s2)cc1	2390	-4	2.8	0	1	3	-13

Record cards, as listed above. Screens in order: Bead autofluor | ugtP null kill | Sa RN4220 lethal | Mtb hypoxia rep | Mtb hypoxia rep growth | BJeLR viability | PrP 5UTR inh
CCOC(=O)c1c(C)[nH]c(C)c1C(=O)COC(=O)C1CCCN1S(=O)(=O)c1ccccc1F (configuration not stated) across the screens: 3378 | -1 | 6.0 | . | . | 1 | -2
CC/C(=N\NC(=S)Nc1ccccc1)c1c(O)[nH]c(=O)[nH]c1=O across the screens: 4301 | 4 | 3.8 | 14 | 5 | -2 | -28

Screening results deposited in PubChem BioAssay by several laboratories.
